# Compound activity (PubChem BioAssay)
# CBX7 AlphaScr = CBX7 chromodomain binding inhibitors, primary screen, biochemical, AlphaScreen; AlphaScreen His6-CBX7 / biotin-H3K27me3 peptide binding; stronger effect = lower value; normalised signal (fraction of DMSO) (concentration not given with the values); 66,000 compounds, 1.1% hits; AID 1224903, 2016; in the data active = normalised signal below about 0.5;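 note: 100 nL library stock added to about 20 µL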
# Target sequence (O95931 whole entry, looked up): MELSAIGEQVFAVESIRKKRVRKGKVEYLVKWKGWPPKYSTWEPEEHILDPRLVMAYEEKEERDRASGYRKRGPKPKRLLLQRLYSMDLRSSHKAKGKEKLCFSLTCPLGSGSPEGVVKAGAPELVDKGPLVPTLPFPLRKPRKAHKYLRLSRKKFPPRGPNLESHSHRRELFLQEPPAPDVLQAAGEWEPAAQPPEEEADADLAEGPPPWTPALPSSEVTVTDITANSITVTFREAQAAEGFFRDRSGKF
# CBX7 AlphaScr z-score = further read-out of CBX7 AlphaScr, marked with its call; z-score; measured here: z-score of CBX7 signal; some inactives read as strong as hits; reference of the scale not given here;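 same signal on another scale; lower means less binding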
# An asterisk follows results filed as active; & = joins results of further samples. Only part of the results is shown. The share of hits here may be higher or lower than overall.
# Sample of the layout:
SMILES	CBX7 AlphaScr	CBX7 AlphaScr z-score
COc1ccc2nc(N3CCCC(C(=O)NCc4ccccc4)C3)sc2c1 (stereo not drawn)	1.02	0.318
Cc1ccc(NC(=O)C2CCC(CNS(=O)(=O)c3cccc4cccnc34)CC2)cc1C (stereo not drawn)	1.05	2.45
CCOc1ccccc1CN1C(=O)c2ccccc2C1C(=O)NCC1CCCO1 (stereo not drawn)	1.01	0.481
O=C(NC1CCCC1)c1cc(=O)[nH]c2ccc(S(=O)(=O)N3CCCCCC3)cc12	0.944	-0.634

# Main list, from the first entry:
SMILES	CBX7 AlphaScr	CBX7 AlphaScr z-score
COc1ccc2nc(N3CCCC(C(=O)NCc4ccccc4)C3)sc2c1 (stereo not drawn)	1.02	0.318
Cc1ccc(NC(=O)C2CCC(CNS(=O)(=O)c3cccc4cccnc34)CC2)cc1C (stereo not drawn)	1.05	2.45
CCOc1ccccc1CN1C(=O)c2ccccc2C1C(=O)NCC1CCCO1 (stereo not drawn)	1.01	0.481
O=C(NC1CCCC1)c1cc(=O)[nH]c2ccc(S(=O)(=O)N3CCCCCC3)cc12	0.944	-0.634
O=c1cc(N2CCN(Cc3ccccc3)CC2)[nH]c(=O)n1-c1ccc(Br)cc1	1.04	0.75
CCOCCCNC(=O)CCc1nc2ccccc2n(Cc2ccccc2C)c1=O	0.94	-0.932
CCOC(=O)N1CCN(C(=O)C2CC(c3ccc(OC)cc3)=NO2)CC1 (stereo not drawn)	0.997	-0.0342
COc1ccc(-c2cc(C(=O)NCc3cn(C)nc3C)c3cc(Br)ccc3n2)cc1	0.969	-0.775
O=C(Cn1ncc2ccsc2c1=O)NCc1ccc(F)cc1	0.951	-0.623
COc1cccc(C(=O)Nc2nnc(C(C)c3ccccc3)s2)c1 (stereo not drawn)	1.08	0.895
O=C(NCc1cccc(Cl)c1)c1nc2c(nnn2CC2CCCO2)c(=O)[nH]1 (stereo not drawn)	0.984	-0.365
CCN1CCN(C(=O)Cn2nc(-c3ccc(C)cc3)ccc2=O)CC1	1.04	1.86
CCOC(=O)C1CCCc2c1[nH]c1c(C(N)=O)cccc21 (stereo not drawn)	0.934	-2.21
CCOCCCNC(=O)C1CCCN(c2nc3ccccc3o2)C1 (stereo not drawn)	0.985	-0.448
NC(=O)C1(N2CCCCC2)CCN(C2CC(=O)N(c3ccc(Cl)cc3)C2=O)CC1 (stereo not drawn)	1.03	1.5
O=C(Nc1ccc2nc3n(c(=O)c2c1)CCCCC3)c1cccnc1Cl	1.03	0.706
Cc1sc2ncn(CC(=O)Nc3ccc(F)cc3)c(=O)c2c1S(=O)(=O)N1CCCCC1	1	0.00231
CCOC(=O)c1c(NC(=O)COc2ccccc2Cl)sc2c1CCCC2	1.04	1.77
C=CCN(c1ccccc1)S(=O)(=O)c1ccc2c(c1)CC(C)N2C(C)=O (stereo not drawn)	1.02	1.06
COc1ccccc1CC(=O)Nc1nc2ccc(S(C)(=O)=O)cc2s1	0.939	-1.72
CCCOc1ccc(Cc2c(O)nc(SCc3cc(C(C)=O)ccc3OC)[nH]c2=O)cc1C	1.13	1.61
CCN1C(=O)c2ccccc2Sc2ccc(C(=O)NCc3ccc(OC)cc3OC)cc21	0.755	-4.44
Cc1sc(NC(=O)c2cc3ccccc3oc2=O)nc1-c1ccc(-c2ccccc2)cc1	1.06	1.15
CCN1CCCC1CNC(=O)c1sc2ncn(CC(=O)N3CCCCC3C)c(=O)c2c1C (stereo not drawn)	1.07	1.96
COc1ccc(NC(=O)C2CCN(S(=O)(=O)c3cccs3)CC2)cc1	0.985	-0.328
Cc1cc(NC(=O)CCCS(=O)(=O)c2nc(-c3cccs3)cc(C(F)(F)F)n2)no1	1.1	0.998
CCCSc1oc(-c2ccc(F)cc2)nc1S(=O)(=O)c1ccc(Cl)cc1	1.06	0.109
COC(=O)CNc1nc(-c2cccnc2)nc2ccccc12	1.02	0.424
CN(C)c1ccc2nnc(-c3ccc(Br)cc3)n2n1	1.1	1.01
O=C(O)c1cc(S(=O)(=O)N2CCCC2)cs1	1.04	1.09

# More structures follow.
SMILES	CBX7 AlphaScr	CBX7 AlphaScr z-score
O=C(CSc1nnc(-c2ccncc2)n1C1CCCCC1)Nc1ccc(F)cc1	1.01	0.0661
COc1ccc(Br)cc1CN1C(=O)c2ccccc2C1C(=O)NC1CCCC(C)C1C (stereo not drawn)	0.952	-0.515
C#CC(O)(c1ccc(OC)cc1)c1ccc(OC)c2ccccc12 (stereo not drawn)	0.976	-0.679
CN(CCCNC(=O)c1cn(C2CCCC2)c(=O)c2c1c1ccccc1n2C)Cc1ccccc1	0.971	-0.827
COc1ccccc1C(=O)Nc1nc(-c2ccc(C(C)C)cc2)cs1	1.31	4.81
COc1ccc(-n2c(=O)cc(N3CC(C)OC(C)C3)[nH]c2=O)cc1 (stereo not drawn)	1.02	0.116
O=S(=O)(c1ccccc1)N(CC(O)CN1CCCC1)c1ccccc1 (stereo not drawn)	1.4	0.914
O=C(CN1C(=O)COc2ccc(S(=O)(=O)N3CCOCC3)cc21)NCCN1CCOCC1	0.976	-0.682
CC(C)CC(=O)Nc1c(C(=O)c2ccc(Cl)cc2)oc2ccccc12	1.08	0.348
Cc1ccc(-n2nc3c(c2NC(=O)C2(c4ccc(Cl)cc4)CCCC2)CS(=O)(=O)C3)cc1	0.97	-0.196
CC1CCCC(NC(=O)Nc2cccs2)C1C (stereo not drawn)	1.02	0.787
O=C1COc2ccc(C(=O)c3ccccc3)cc2CN1	1.09	1.89
Cc1onc(-c2c(F)cccc2Cl)c1C(=O)Nc1ccccc1	1	0.0274
Cc1cccc(-c2noc(COc3ccc(Br)cc3)n2)c1	1.06	1.95
O=C(NCc1cccnc1)c1cc(-c2cccnc2)nc2ccccc12	1.25	1.82
O=C(CSc1nnc(CNC(=O)c2c(F)cccc2Cl)o1)Nc1ccc(F)cc1	1.01	0.308
Cc1nc(N2CCC(C)CC2)c2c(C)c(C(=O)NC3CCCCCC3)sc2n1	0.869	-1.88
CC(C)(c1ccccc1)c1ccc(OCC(=O)Nc2nccs2)cc1	0.893	-2.43
COc1ccc(OCC(O)CN2C(=O)NC(C)(C)C2=O)cc1 (stereo not drawn)	0.867	-2.08
Cc1ccnc(Nc2nc(-c3c(C)nc4sccn34)cs2)c1	0.976	-0.028
COc1cccc(-n2ccnc2SCC(=O)Nc2ccc(Cl)cc2)c1	0.842	-2.81
Nc1nonc1-n1nnc(C(=O)N2CCCC2)c1-c1ccccc1	1.02	0.445
CCCC1CCC(C(=O)Nc2ccc3nc(N4CCOCC4)cc(C)c3c2)CC1 (stereo not drawn)	1.02	0.354
Cc1cc2c(cc1C)C(c1cccc(F)c1)CC(=O)N2 (stereo not drawn)	0.978	-0.616
COc1ccc(CC(=O)NC(C)C(c2cccs2)N2CCN(c3ccccc3)CC2)cc1 (stereo not drawn)	1.1	1.09
O=C(C1CC1)N1CCc2cc(S(=O)(=O)N3CC=C(c4ccccc4)CC3)ccc21	0.992	-0.214
CCOc1ccc(-c2cc(OC)c3c(C)oc(C)c3c(=O)c2)cc1	0.672	-0.666
COc1cc(CNC(C)(C)CO)cc(Br)c1OCc1ccccc1	1.09	2.96
O=C(Cn1c(SCc2ccccc2F)nc2ccncc21)Nc1ccc(Cl)cc1F	1.03	1.46
CC1(C)CC(=O)c2cnc(NC(=O)C34CC5CC(CC(C5)C3)C4)nc2C1	1.16	1.12

# Next part
molecule,CBX7 AlphaScr,CBX7 AlphaScr z-score
COc1ccc2nc(NC(=O)C3CCN(S(=O)(=O)c4cccnc4)CC3)sc2c1,1.05,1.45
O=C(CN1C(=O)CSc2ccc(S(=O)(=O)N3CCCC3)cc21)NCc1cccnc1,1.09,2.19
COc1cc2c(c(OC)c1)C(c1ccc(N(C)C)cc1)CC(=O)N2 (stereo not drawn),0.695,-2
CCC1Oc2ccc(C)cc2N(CC(=O)NCc2cccc(OC)c2)C1=O (stereo not drawn),1.01,0.201
O=C(CC1Nc2ccccc2NC1=O)Nc1ccccc1OC(F)F (stereo not drawn),0.96,-1.08
CCOC(=O)c1cc(-c2ccccc2)sc1NC(=O)c1cccnc1,1,0.0384
CCOc1cccc(C2CC(=O)Nc3cc4c(cc32)OCO4)c1 (stereo not drawn),0.952,-1.43
Cc1oc(-c2ccc(Cl)cc2)nc1C(=O)NCc1cccnc1,1.06,0.134
COc1ccc2c(c1)Cc1sc(NC(=O)c3ccccc3Br)nc1-2,0.848,-2.21
COc1cccc(NC(=O)Cn2cc(S(=O)(=O)c3ccc(C)cc3)c(=O)c3cc(OC)ccc32)c1,0.901,-1.39
Cn1c(C(=O)O)c(CC(=O)N2CCC(Cc3ccccc3)CC2)c2ccccc21,0.971,-0.0287
COc1ccc(C(=O)Nc2nc(-c3ccccc3)ns2)cc1OC,0.908,-0.99
Cc1cc2c(cc1C)NC(c1ccc(Cl)c(Cl)c1)C1=C(CC(C)(C)CC1=O)N2 (stereo not drawn),1.06,0.994
CCCCCCOc1ccc(OCC(O)CN2C(=O)NC(C)(C)C2=O)cc1 (stereo not drawn),0.909,-0.882
O=C(NCC1CCCO1)C1CCN(C(=O)c2cc3sccc3n2Cc2ccc(Cl)cc2)CC1 (stereo not drawn),1.02,0.952
CCC(=O)Nc1nc(C)c(-c2csc(Nc3ccccn3)n2)s1,0.879&0.838,-5&-0.183
CC(C)(C)c1nnc(Nc2ccc3c(c2)OCCO3)[nH]c1=O,1.18,0.367
CC(=O)Nc1ccc(Br)cc1C(=O)c1nnc(N)s1,1.05,1.74
CCN1CCN(CCCNC(=O)COc2ccc3c(c2)C(=O)CC(C)(C)O3)CC1,0.453*,-10.8*
CCCn1c(=O)c(C(=O)NCc2cccnc2)c(O)c2ccccc21,0.958,-0.265
Cn1cc(CC(=O)NCC2(c3ccccc3)CCCC2)c2ccccc21,0.895,-3.66
Cc1cc(C)cc(OCC(=O)Nc2cccc(-c3nc4cc(C)ccc4o3)c2)c1,1.18,1.77
COc1ccc2nc(NC(N)=NS(=O)(=O)c3ccc(C)cc3)nc(C)c2c1,0.977,-0.818
COc1ccccc1C(=O)Nc1ccc2oc(-c3cccc(Cl)c3Cl)nc2c1,0.976,-0.596
Clc1ccc(-c2nnc3ccc(N4CCCCC4)nn23)cc1,1.01,0.131

# Quoted at random: five records from the list
molecule,CBX7 AlphaScr,CBX7 AlphaScr z-score
Cc1cc2c(cc1C)NC(c1ccc(Cl)c(Cl)c1)C1=C(CC(C)(C)CC1=O)N2 (stereo not drawn),1.06,0.994
CCOc1cccc(C2CC(=O)Nc3cc4c(cc32)OCO4)c1 (stereo not drawn),0.952,-1.43
CC(=O)Nc1ccc(Br)cc1C(=O)c1nnc(N)s1,1.05,1.74
COc1cc2c(c(OC)c1)C(c1ccc(N(C)C)cc1)CC(=O)N2 (stereo not drawn),0.695,-2
COc1ccc2c(c1)Cc1sc(NC(=O)c3ccccc3Br)nc1-2,0.848,-2.21

# Additional structures:
molecule,CBX7 AlphaScr,CBX7 AlphaScr z-score
CN(CC(=O)NCc1cccs1)S(=O)(=O)c1ccc2c(c1)n(C)c(=O)c(=O)n2C,1.08,0.706
CCOc1ccc(-c2nc3cc(NC(=O)c4ccccc4F)ccc3o2)cc1,1.06,2.4
CCOC(=O)c1ccccc1NC1c2ccccc2C(=O)N1Cc1ccccc1 (stereo not drawn),0.623,-10.2
Cn1cc(CCCC(=O)NCCc2ccc(Cl)cc2)c2ccccc21,0.962,-0.296
COc1ccc(Nc2cc(C)nc3c(C)cccc23)cc1,1.02,0.199
Cc1ccc2c(CC(=O)O)cc(=O)oc2c1,0.981,-0.358
Cc1cccc(C)c1OCC(=O)N(Cc1ccc(C(C)C)cc1)C1CCS(=O)(=O)C1 (stereo not drawn),1.02,0.151
Cn1c(=O)c2cn(Cc3ccc(Cl)cc3)cc2n(C)c1=O,0.84,-1.69
CCOc1ccc(NS(=O)(=O)c2ccc3c(c2)CCC(=O)N3)cc1,0.999,-0.016
Cc1ccc(C(C(=O)Nc2ccccn2)c2ccc(C)cc2)cc1,1.06,1.46
Cc1ccc2c(c1)C(c1ccc(F)cc1)N(C(=O)c1ccccc1C(F)(F)F)CC(=O)N2 (stereo not drawn),0.934,-0.635
Cc1ccc(NC(=O)C(c2ccccc2)N2CCN(C3CCCCC3)CC2)cc1 (stereo not drawn),1.54,1.09
COc1ccccc1-n1c(C)nc2cc(C(=O)N3CCOCC3)ccc21,0.969,-0.825
CCCSc1nnc(Cc2cc(=O)[nH]c(=O)[nH]2)n1-c1ccc(OCC)cc1,0.83,-2.6
CC(C)OCCCNC(=O)C1C2C=CC3(CN(Cc4ccccc4Cl)C(=O)C13)O2 (stereo not drawn),1.01,0.677
Cc1c(C(=O)NCCC(C)C)sc2ncnc(N3CCOCC3)c12,1.02,0.449
O=C(CC1(O)C(=O)N(CCc2ccccc2)c2ccccc21)c1ccc(Cl)cc1 (stereo not drawn),0.945,-1.47
COc1ccc(C)cc1NC(=O)C1CCCN1S(=O)(=O)c1ccc2c(c1)CCC(=O)N2 (stereo not drawn),0.969,-0.551
COc1cc2ccccc2cc1C(=O)Nc1ccc(-c2nc3ccccc3s2)cc1,1.28,2.9
O=C(CN1CCN(Cc2cccc(Cl)c2)C1=O)NCCc1ccccc1,0.946,-0.711
COc1cccc(C2=NOC(C(=O)NCc3ccccc3)C2)c1 (stereo not drawn),1.07,0.912
Cc1ccc(C)c(NC(=O)C2CCN(C(=O)c3cnn(-c4ccccc4)c3-n3cccc3)CC2)c1,0.88,-0.275
COc1ccc(OC)c2[nH]c(=O)c(CCNC(=O)c3ccc4c(c3)OCO4)cc12,0.844,-2.01
CCN1CCCC1CNC(=O)C1CCN(C(=O)c2cc3sccc3n2Cc2ccc(F)cc2)CC1 (stereo not drawn),1.02,0.994
CC(=O)N1CCc2cc(S(=O)(=O)NCCCN3CCOCC3)ccc21,1.08,0.307
